Screening results (PubChem)
miR-21 FLuc: qHTS Assay for Modulators of miRNAs and/orActivators of miR-21 | 340,000 tested, under 10 active | Potency, µM (doses to about 38.3 µM), for inactives: at the top dose reporter change, positive = more light | HeLa miR-21 FLuc reporter, luciferase, 48 h; active = well fitted rising curve with a large enough effect; inconclusive = small, poorly fitted or top-dose-only effect; inactive = no such curve, though single readings can be large or run the other way;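 note: % of control where 0% means no effect; miR-21 action dims this reporter so a rising signal means less miR-21 action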
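HeLa cells stably expressing CMV-driven firefly luciferase with a downstream miR-21 binding sequence, endogenously expressing miR-21, were treated with titrations (up to about 40uM final) for 48 hours at 37 degree Celsius. Luciferase luminescence was read after lysis.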
GLA inh pH 4.5: qHTS Assay for Inhibitors of Human alpha-Galactosidase at pH 4.5. purified enzyme, 4-MU-alpha-Gal fluorescence, pH 4.5. activity change, negative = inhibition, % at 105 µM. 230,000 tested, under 10 active. AID 1467, 2008; inconclusive = small, poorly fitted or top-dose-only inhibition, or a rising curve; inactive = flat fitted curve, though single readings scatter; no compound was filed as active;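 note: 0% = full activity with enzyme and -100% = basal without enzyme; dose as in the result columns while the protocol names 77 µM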
Target sequence (P06280 whole entry, looked up): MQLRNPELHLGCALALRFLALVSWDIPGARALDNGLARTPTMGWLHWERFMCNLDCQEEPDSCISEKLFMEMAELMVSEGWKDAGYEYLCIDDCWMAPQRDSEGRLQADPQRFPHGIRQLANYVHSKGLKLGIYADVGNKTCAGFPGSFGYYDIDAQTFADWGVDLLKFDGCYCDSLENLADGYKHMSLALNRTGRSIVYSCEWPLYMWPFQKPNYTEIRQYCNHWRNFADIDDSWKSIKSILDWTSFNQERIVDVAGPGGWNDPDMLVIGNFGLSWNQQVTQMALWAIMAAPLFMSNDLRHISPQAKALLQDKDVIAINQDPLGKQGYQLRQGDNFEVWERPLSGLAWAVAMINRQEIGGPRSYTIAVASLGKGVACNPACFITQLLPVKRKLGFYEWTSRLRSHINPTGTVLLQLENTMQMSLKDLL
Rango complex inh: qHTS Assay for Inhibitors of Rango (Ran-regulated importin-beta cargo) - Importin beta complex formation; Importin subunit beta-1 (Homo sapiens), Q14974; Rango CFP/YFP FRET sensor + importin beta, 45 min; Potency, µM (highest dose often 92.2 µM), inactives show at the highest dose inhibition of complex formation; 0.031% of 340,000 active; AID 540263, 2011; active = rising FRET ratio curve, often small or poorly fitted; inconclusive = mostly compound fluorescence or quenching in the first reads; inactive = flat curves in all reads;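 note: potency is the fitted concentration of half-maximal effect; 0% = DMSO wells and 100% = buffer wells lacking importin beta; nearly all actives have a fitted effect of over 15% in size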
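FRET biosensor Rango (snurportin 1 IBB between N-terminal EYFP and C-terminal Cerulean), 50 nM in PBS/1 mM DTT/0.02% Tween-20/0.1% BSA, preincubated 5 min RT with compound; 0.125 microM importin beta added, 45 min RT, CFP/YFP FRET ratio read.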
Rango release inh: qHTS Assay for Inhibitors of RanGTP induced Rango (Ran-regulated importin-beta cargo) - Importin beta complex dissociation; 0.071% of 340,000 active; AID 540253, 2011; Potency, µM (doses to about 46.1 µM), for the others: at the highest dose activity change, negative = inhibition; Biochemical FRET Rango-importin beta, RanGTP-induced dissociation; Snurportin-1 (Homo sapiens) + GTP-binding nuclear protein Ran (Homo sapiens) + Importin …; active means falling FRET ratio curve, often poorly fitted, with flat reads before Ran was added; inconclusive means other falling curves, or compound fluorescence or quenching; inactive means flat or rising ratio curve;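 note: potency is the fitted concentration of half-maximal effect; % of control where 0% means no effect; nearly all actives have a fitted effect of over 45% in size; -100% = wells without RanGTP and RCC1; the record marks most hits as doubtful in a second field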
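Rango FRET biosensor (snurportin-1 IBB flanked by N-terminal EYFP and C-terminal CFP10) at 0.1 uM, with 0.25 uM importin beta in PBS, 1mM DTT, 0.02% Tween-20, 0.1% BSA. 0.6 uM Ran, 2mM GTP and 0.2 uM RCC1 were then added for 45 min at room temperature. Inhibition read as loss of FRET rise.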
An asterisk follows results filed as active; ? = inconclusive; nt = not tested or not shown. Only part of the results is shown, so the mix of outcomes need not match the whole.

SMILES	miR-21 FLuc	GLA inh pH 4.5	Rango complex inh	Rango release inh
Nn1c(SCC(=O)Nc2ccccc2)nnc1-c1cccnc1	-6%	-2	-2.6%	16%
CCCN1CCN(C(c2cc3cc4c(cc3[nH]c2=O)OCO4)c2nnnn2C(C)(C)C)CC1 (stereo unspecified)	6%	21	-2.4%	-11%
CCOC(=O)C1CCN(Cc2nnc(-c3ccccc3C)o2)CC1	-10%	nt	0.5%	-6%
CCNS(=O)(=O)c1ccc(NC(=S)NCc2ccco2)cc1	-1%	3	-0.8%	1%
COCC(C)OC(=O)c1c(N)n(CCCN2CCOCC2)c2nc3ccccc3nc12 (stereo unspecified)	1%	?	?	?
CC(C)(C)c1ccc(OC(=O)Cn2c(C(F)(F)F)nc3ccccc32)cc1	0%	2	1.3%	10%
COc1ccc(C(=O)Nc2c(O)ccc3ccccc23)cc1OC	nt	nt	-2.6%	-2%
O=C(C1CCCN(c2nnc(-n3cccc3)s2)C1)N1CCN(c2ccccc2)CC1 (stereo unspecified)	6%	-5	-0.4%	-18%
c1ccc(-c2cccc(-c3ccccn3)n2)nc1	2%	1	-0.2%	-16%
N#Cc1c(F)cccc1NCc1cccs1	-22%	-18	-0.7%	1%
C/C(CC(=O)Nc1cc(C)ccn1)=N\NC(=O)c1cccc(F)c1	-29%	nt	0.8%	?
Cc1ccc(C)c(NC(=O)COC(=O)c2nn(C)c(=O)c3ccccc23)c1	nt	nt	2.1%	1%
CCc1noc(C)c1C(=O)NNC(=O)c1nn(CC)c(=O)c2ccccc12	nt	nt	3.6%	-2%
CCOC(=O)C1=C(C)SC2=NS(=O)(=O)CCN21	-11%	7	1.7%	-7%
COc1ccccc1C(=O)NCCOc1ccc(C(C)(C)C)cc1	-10%	nt	5.8%	-9%
Brc1ccc(CN2CCCCCC2)cc1	nt	nt	5.4%	-13%
COCC(C)n1c(C)cc(C(=O)CSc2nnnn2-c2ccc(O)cc2)c1C (stereo unspecified)	-25%	2	-0.3%	-4%
O=C(Nc1ccc(F)cc1)C1CCC(N2C(=O)c3ccccc3C2=O)CC1 (stereo unspecified)	-3%	-3	-3.8%	11%
O=C(COC(=O)CCC(=O)c1ccc(F)cc1)NC1CCCCC1	nt	nt	-0.1%	15%
NC(=O)c1cc(NC(=O)c2ccc(NS(=O)(=O)c3cccs3)cc2)cc(C(N)=O)c1	2%	11	-4.2%	20%
O=C(Nc1ccc(F)cc1F)c1cc2ncc(CCCl)cn2n1	-8%	9	-2.5%	2%
Oc1ccc(-c2[nH]nc(-c3ccccc3)c2-c2nc3ccccc3[nH]2)cc1	4%	14	1.4%	-13%
COc1ccc(-c2c(C)n([O-])c3c([n+]2=O)CCCCC3)cc1OC	-1%	3	2.4%	7%
Cc1ccc(S(=O)(=O)N(CC(O)CN2CCOCC2)c2cccc([N+](=O)[O-])c2)cc1 (stereo unspecified)	-1%	nt	-0.8%	-6%
COc1cccc(NC(=O)CSc2nc3ncc(Br)cc3[nH]2)c1	16%	nt	-4.2%	5%
Cc1ccccc1-n1nc(C)c2cc(C(=O)N3CCN(S(=O)(=O)c4ccc(Cl)cc4)CC3)sc21	-3%	8	-0.5%	30%
CCOc1ccc(S(=O)(=O)N(CC)CC(=O)NCc2ccco2)cc1C	10%	nt	-2.1%	-26%
CN1CCN(P(=O)(c2ccccc2)c2nc3ccccc3s2)CC1 (stereo unspecified)	-5%	-1	6.3%	-6%
O=C(NCCn1cc(SCC(=O)N2CCOCC2)c2ccccc21)c1ccccc1	0%	11	7.3%	14%
CN(CCOc1ccccc1)S(=O)(=O)c1ccc2oc3ccccc3c2c1	-7%	3	?	-3%
CCOCCCNC(=O)C(NC(=O)Cc1c[nH]c2ccccc12)c1ccc(OC)cc1 (stereo unspecified)	-1%	4	1.2%	0%
CCn1cc(-c2csc(N)n2)c(C)n1	0%	8	-2.1%	0%
Cc1ccc(OCC(=O)NCCNC(=O)c2ccncc2)cc1	-1%	nt	0.1%	4%
COc1ccc(S(=O)(=O)N2CCN(C/C=C/c3ccccc3)CC2)cc1NC(C)=O	-2%	nt	0.7%	2%
COc1ccc(C(C#N)Nc2ccc(C)cc2)cc1 (stereo unspecified)	-1%	1	-0.5%	0%
COc1cccc(OC)c1C(=O)NC(C)c1ccccc1 (stereo unspecified)	-2%	-1	-1.8%	45%
Cc1cc(C)cc(NC(=O)Cn2cc(C=O)c3ccccc32)c1	4%	nt	2.6%	0%
Cc1cc(OCc2cc(C(=O)N(C)CCc3cnn(C)c3)no2)cc(C)c1Cl	-55%	nt	0.1%	4%
CC(C)COCC(O)CCC(=O)NNC(=S)Nc1ccccc1 (stereo unspecified)	-11%	0	0.1%	26%
Cc1nn(CCC(=O)NNC(=S)NCC(C)C)c(C)c1Br	-12%	7	-0.2%	12%
Cc1nc2c3ccccc3nc(NNC(=O)CCC(=O)NCCN3CCN(c4ccccc4F)CC3)n2n1	0%	nt	-0.2%	3%
O=C1CC(NS(=O)(=O)c2cccnc2)CN1c1cccc(F)c1 (stereo unspecified)	nt	nt	-0.2%	5%
O=C(Nc1ccncc1)c1cc(S(=O)(=O)N2CCN(c3ccccc3)CC2)ccc1Cl	nt	nt	2.5%	-3%
COc1cc2c(c(OC)c1OC)-c1ccc(N(C)CC(OC)OC)c(=O)cc1[C@@H](NC(C)=O)CC2	?	nt	-0.7%	1%
N#CCCN(C(=O)COC(=O)c1ccc2c(=O)n3c(nc2c1)CCC3)c1ccccc1	3%	-6	-1.3%	-10%

By substructure, the compounds so far containing a thiophene ring, fused or not (three)
SMILES	miR-21 FLuc	GLA inh pH 4.5	Rango complex inh	Rango release inh
N#Cc1c(F)cccc1NCc1cccs1	-22%	-18	-0.7%	1%
NC(=O)c1cc(NC(=O)c2ccc(NS(=O)(=O)c3cccs3)cc2)cc(C(N)=O)c1	2%	11	-4.2%	20%
Cc1ccccc1-n1nc(C)c2cc(C(=O)N3CCN(S(=O)(=O)c4ccc(Cl)cc4)CC3)sc21	-3%	8	-0.5%	30%

Following part
SMILES	miR-21 FLuc	GLA inh pH 4.5	Rango complex inh	Rango release inh
Cc1cc(C(=O)OCC(=O)Nc2nnc(C(C)C)s2)c2ccccc2n1	-6%	1	0.8%	23%
O=C(NCCc1ccc(Cl)cc1)c1nnc(Cc2ccc(Cl)cc2)o1	-5%	-9	2.5%	9%
Cc1nnsc1-c1nc2ccccc2[nH]1	-7%	0	1.0%	0%
CC(=O)N(c1nc(CCl)cs1)c1c(C)cc(C)cc1C	0%	7	4.2%	0%
OCCC1CN(Cc2cnc(-c3ccccc3)s2)CCN1C1CCCCC1 (stereo unspecified)	-2%	6	-0.4%	2%
COc1ccc(S(=O)(=O)Nc2noc3ccccc23)cc1OC	-5%	nt	6.0%	-2%
O=C(O)C1(c2ccccc2)CCN(S(=O)(=O)c2ccc(Cl)cc2)CC1	5%	nt	-1.5%	6%
COc1ccc(-c2cn3cc(C(=O)NN)ccc3n2)cc1	-32%	9	2.5%	-5%
CCN(CC)c1ccc2c(c1)C(=O)N(C)C2=O	-59%	2	?	?
O=C(O)CCC(=O)NNC(=O)c1ccc([N+](=O)[O-])cc1	1%	5	-3.5%	19%
CCOC(=O)c1c(-c2ccccc2)csc1NC(=O)CSc1nnc(C)s1	10%	2	-4.0%	-6%
CCOC(=O)c1sc2nc(C)nc(N3CCN(S(=O)(=O)c4ccccc4)CC3)c2c1C	nt	nt	-4.5%	-3%
N#Cc1c[nH]n2c(=O)c3c(nc12)CCC3	2%	-3	0.7%	2%
Cn1c(Cl)cnc1C(O)(c1ccccc1)c1ccccc1	1%	-5	-2.5%	21%
CC(=O)c1c(C)[nH]c(C(=O)COC(=O)c2cc(S(=O)(=O)N(C)c3ccccc3)ccc2Cl)c1C	0%	-4	-0.3%	4%
Cc1nc(Nc2cccc(O)c2)c2oc3ccccc3c2n1	-11%	nt	0.9%	0%
NC(N)=Nc1nc(CCN2C(=O)c3ccccc3C2=O)cs1	-8%	-27	1.3%	10%
O=C(NC(Cc1ccccc1)C(=O)O)/C(=C/c1ccc(Cl)cc1)NC(=O)c1ccccc1 (stereo unspecified)	-1%	8	0.1%	5%
O=[N+]([O-])c1ccc(/C=N/NC(=S)Nc2ccccc2)o1	-1%	5	-3.7%	-18%
CN(C)S(=O)(=O)c1cccc(-c2csc(=Nc3ccccc3)n2CCCN2CCOCC2)c1	-4%	-7	-3.2%	22%
CC1CCN(CC(=O)c2cccs2)CC1	-16%	2	1.9%	0%
O=C(CCN1C(=O)C2CC=C(Cl)CC2C1=O)N1CCCCC1 (stereo unspecified)	-3%	6	?	?
COc1cccc(N2CCN(c3ccc4nnc(CCC(=O)Nc5ccc(F)cc5)n4n3)CC2)c1	1%	nt	1.9%	0%
O=C(O)Cc1ccc(C(=O)c2ccc(Cl)cc2)s1	6%	1	6.7%	-1%
CCN(CC)S(=O)(=O)c1ccc(Nc2ccc(-c3ccc4c(c3)OCCO4)nn2)cc1	-20%	6	-0.7%	13%
CC(C)(C)c1cc(C(=O)NNc2ccc(OC(F)(F)F)cc2)n(Cc2ccccc2)n1	6%	-4	1.8%	-8%
O=[N+]([O-])c1cc(/C=N/NC(=S)Nc2ccccc2Cl)ccc1Cl	-3%	-4	?	1%
O=C(CSc1nnc2ccccn12)NCCN1C(=O)CSC1=O	-6%	2	1.2%	2%
Cc1c(C)n(C(=O)CN2CCC(C(N)=O)CC2)c2ccccc12	1%	8	0.3%	1%
CN(C)S(=O)(=O)c1ccc(C(=O)Nc2nnc(SCc3cccc4ccccc34)s2)cc1	-2%	5	-0.7%	-16%
CCOc1ccc(OCc2ccc(C(=O)NCc3ccncc3)o2)cc1	-5%	-7	-2.9%	14%
CSc1cccc(NC(=O)c2[nH]c(C)c(C(C)=O)c2C)c1	-40%	nt	-2.4%	-17%
COc1cc(/C=C2\NC(=S)N(C)C2=O)ccc1OCc1ccccc1F	-13%	nt	0.3%	0%
CC1=C(C(=O)OCc2ccccc2)C(c2ccc([N+](=O)[O-])cc2)NC(=O)N1CCCC(=O)O (stereo unspecified)	-1%	nt	-0.3%	-7%
O=C(NCCS(=O)(=O)NCc1ccc2c(c1)OCO2)c1ccccc1	nt	nt	4.1%	4%
COc1ccc(/C=N/NC(=O)C(C)Sc2ccccn2)cc1[N+](=O)[O-] (stereo unspecified)	2%	-2	-4.1%	?
O=C(CC1CCC1)NC(c1ccccc1)c1ccccc1	1%	6	-1.7%	1%
COc1cc(C#N)c(NC(=O)CN2CCN(CCO)CC2)cc1OC	1%	-4	-1.3%	-13%
O=C1c2ccccc2NC(c2ccc3c(c2)OCCO3)N1c1ccc2c(c1)OCCO2 (stereo unspecified)	3%	0	-1.9%	2%
Oc1ccc(Nc2ccc3ccccc3c2)cc1	nt	nt	-2.7%	-17%
CCOC(=O)c1c(-c2ccc(C)cc2)csc1NC(=O)CCN1CC(C)OC(C)C1 (stereo unspecified)	-8%	-1	1.3%	2%
COc1ccc(CC(=O)Nc2cccc(C(=O)NN3C(=O)c4ccccc4C3=O)c2C)cc1	-2%	-11	-0.3%	3%
CCO[C@@H]1OC(C(=O)NCc2nc3ccccc3[nH]2)=C[C@H](C2CCCCC2)[C@H]1CCCO	22%	-24	3.9%	4%
CCCOc1cccc(OCCSc2nc(C)cc(=O)[nH]2)c1	-47%	1	0.4%	12%

In another format: entries from further up
Every second line gives: miR-21 FLuc | GLA inh pH 4.5 | Rango complex inh | Rango release inh
O=C1c2ccccc2NC(c2ccc3c(c2)OCCO3)N1c1ccc2c(c1)OCCO2 (stereo unspecified)
  3% | 0 | -1.9% | 2%
Oc1ccc(Nc2ccc3ccccc3c2)cc1
  nt | nt | -2.7% | -17%
